Tgondii IFNg = T. gondii growth inhibition under IFN-gamma | AID 1259416 | activity change, negative = inhibition, %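 (about 20 µM by stock and volumes)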 | 69,000 tested, 3.8% active | Toxoplasma gondii growth in IFN-gamma-treated host cells; active compounds read low; reference of the scale not given here;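 active = below -70%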;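 note: host cells are HeLa cells infected with Toxoplasma gondii; parasite growth read as luciferase light; one replicate is shown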
The depositor's hits bear a star. An excerpt (hit frequency here may not be typical).

For Fc1cnc(N2C[C@H](Oc3ccccn3)[C@@H]3OCCC[C@@H]32)nc1 the results were Tgondii IFNg 1.0.
Screening Cc1ccc(CS(=O)(=O)N2CCc3c(CN4CCCC4)nn(C)c3C2)cc1 returned Tgondii IFNg -33.7.
For C[C@@H]1CN([C@@H](C)CO)C(=O)c2cc(NC(=O)Nc3ccc4c(c3)OCO4)ccc2O[C@@H](C)CCCCO[C@H]1CN(C)C(=O)CCCN(C)C the results were Tgondii IFNg 220.7.
CCC(=O)Nc1ccc2c(c1)C(=O)N(C)C[C@@H](OC)[C@H](C)CN(Cc1nccs1)[C@@H](C)CO2 was read as Tgondii IFNg 28.6.
`CCCc1cc(C(=O)NC2CCC(n3cnnc3)CC2)ccn1` (stereo unspecified) gave Tgondii IFNg 2.0.
COc1ccc2c(c1)NC1(CCN(S(=O)(=O)c3cc(F)ccc3F)CC1)c1cccn1-2 was read as Tgondii IFNg -27.6.
Screening Cc1nc2ccccc2n1CC(C)C(=O)Nc1ccccc1CN1CCN(C)CC1 (stereo unspecified) returned Tgondii IFNg 7.4.
Screening COc1ccc(-c2nc3c(s2)CN(S(=O)(=O)c2ccc(C)cc2)CC3)cc1 returned Tgondii IFNg -76.2*.
COCCN1C(=O)CCc2cc(NC(=O)c3ccc(OC(F)(F)F)cc3)ccc21 was read as Tgondii IFNg 5.9.
For CN(Cc1ccco1)[C@H]1CN(C(=O)c2ccco2)C[C@@H]2CCCO[C@H]21 the results were Tgondii IFNg -1.0.
For O=C(c1ccccc1F)N1C[C@H]2[C@@H](c3ccccc31)[C@H](CO)N2Cc1ccc2c(c1)OCO2 the results were Tgondii IFNg -13.3.
For CC(NC1CSCCSC1)c1nc(-c2ccccn2)no1 (stereo unspecified) the results were Tgondii IFNg 7.1.
For CN(C)C(=O)CN1CCOCC2(CCN(C(=O)Nc3ccc(Cl)cc3)CC2)C1 the results were Tgondii IFNg -0.1.
Screening CN(CCc1ccccn1)C(=O)c1nccnc1C(=O)O returned Tgondii IFNg -5.5.
`O=C(NC1CCCCC1)c1c2c(nc3ccccc13)-c1ccccc1CC2` gave Tgondii IFNg 20.5.
Cc1ccc(S(=O)(=O)N2CCC3(CCC(C(=O)N4CCCC4)O3)C(C)C2)cc1F (stereo unspecified) was read as Tgondii IFNg -8.5.
For COc1cccc(-n2c(=O)c(C(=O)NCc3ccccc3)c(O)c3cccnc32)c1 the results were Tgondii IFNg 68.7.
`Cc1nc2sccn2c1CN1CCC(N)CC1` gave Tgondii IFNg 34.7.
Screening Cc1cc(C)c2c(=O)n(Cc3nc(-c4ccccc4)oc3C)c(=O)n(C)c2n1 returned Tgondii IFNg -50.9.
Screening COC1(C)CC2C(CC1OC(=O)c1cc([N+](=O)[O-])cc([N+](=O)[O-])c1)C2(C)C (stereo unspecified) returned Tgondii IFNg -15.1.

Grouped by structure: the entries above containing a halogen
For Fc1cnc(N2C[C@H](Oc3ccccn3)[C@@H]3OCCC[C@@H]32)nc1 the results were Tgondii IFNg 1.0.
COc1ccc2c(c1)NC1(CCN(S(=O)(=O)c3cc(F)ccc3F)CC1)c1cccn1-2 was read as Tgondii IFNg -27.6.
COCCN1C(=O)CCc2cc(NC(=O)c3ccc(OC(F)(F)F)cc3)ccc21 was read as Tgondii IFNg 5.9.
For O=C(c1ccccc1F)N1C[C@H]2[C@@H](c3ccccc31)[C@H](CO)N2Cc1ccc2c(c1)OCO2 the results were Tgondii IFNg -13.3.
For CN(C)C(=O)CN1CCOCC2(CCN(C(=O)Nc3ccc(Cl)cc3)CC2)C1 the results were Tgondii IFNg -0.1.
Cc1ccc(S(=O)(=O)N2CCC3(CCC(C(=O)N4CCCC4)O3)C(C)C2)cc1F (stereo unspecified) was read as Tgondii IFNg -8.5.

(listing goes on)
Cn1ccnc1CN1CCOCC2(CC(CNc3ccccc3)CO2)C1 (stereo unspecified) was read as Tgondii IFNg -28.2.
For CO[C@@H](C(=O)N(C)C[C@H]1OCc2ccccc2-c2ccccc2C(=O)N([C@@H](C)CO)C[C@@H]1C)c1ccccc1 the results were Tgondii IFNg 51.6.
`CO[C@H](CN(C)Cc1ccc(-c2ccccn2)cc1)[C@@H](C)CN(C(=O)Nc1ccc(F)cc1)[C@@H](C)CO` gave Tgondii IFNg 73.1.
`CCCCCC(CC)NC1=NCCCS1` (stereo unspecified) gave Tgondii IFNg 40.5.
For C=CCn1cc(CN2CCC(c3cccc(OC)c3OC)C2)c(C)n1 (stereo unspecified) the results were Tgondii IFNg -16.7.
`C[C@@H]1CN([C@@H](C)CO)C(=O)c2ccccc2-c2ccccc2CO[C@@H]1CN(C)S(=O)(=O)c1cn(C)cn1` gave Tgondii IFNg -46.3.
For O=S(=O)(Nc1ccc2c(c1)oc1ccccc12)c1ccc2ccccc2c1 the results were Tgondii IFNg 11.4.
For COCCn1c(C)cc2cc(NC(=O)C(C)Sc3nc(C)c(C)c(=O)[nH]3)ccc21 (stereo unspecified) the results were Tgondii IFNg 12.0.
`CC(C)CC(NS(=O)(=O)c1ccc2[nH]c(=O)ccc2c1)C(=O)N1CCCCC1` (stereo unspecified) gave Tgondii IFNg 61.1.
`COc1cccc(CNC(=O)CCC2CCCN(c3nc4ccccc4o3)C2)c1` (stereo unspecified) gave Tgondii IFNg 16.4.
For CCOc1ccccc1-c1noc(-c2c(O)c3ccccc3n(C)c2=O)n1 the results were Tgondii IFNg -9.2.
`Cn1cnc(C(=O)N2CC[C@@H]3OCCN(Cc4ccncc4)[C@@H]3C2)c1` gave Tgondii IFNg -3.2.
Screening CC(C)OC(=O)c1cc(-n2cnnc2)ccc1Cl returned Tgondii IFNg 0.2.
For O=C(NCCCn1cccn1)C1CC(=O)N(c2ccc3c(c2)OCCO3)C1 (stereo unspecified) the results were Tgondii IFNg 9.3.
Cn1nc(-c2ccccc2)cc1NC(=O)Cn1cnc(Cl)c1Cl was read as Tgondii IFNg 1.5.
Screening CC(c1cccs1)N(C)C(=O)c1ccc2sc(N)nc2c1 (stereo unspecified) returned Tgondii IFNg 0.8.
`Cc1ccc2c(c1)NC1(CCN(S(=O)(=O)c3ccc(C(C)(C)C)cc3)CC1)c1cccn1-2` gave Tgondii IFNg 22.2.
Screening Cc1ccc(S(=O)(=O)Nc2ccc3c(c2)C(=O)N([C@@H](C)CO)C[C@H](C)[C@@H](CN(C)S(=O)(=O)c2cccs2)OCCCC[C@@H](C)O3)cc1 returned Tgondii IFNg -90.4*.
For O=C1CN(C(=O)OCc2ccccc2)CCN1 the results were Tgondii IFNg 35.3.
For O=S(=O)(NCc1nc2ccccc2[nH]1)c1ccc(Cl)cc1 the results were Tgondii IFNg -11.7.

Filtered by structure, the entries above with an NH in an aromatic ring.
For COCCn1c(C)cc2cc(NC(=O)C(C)Sc3nc(C)c(C)c(=O)[nH]3)ccc21 (stereo unspecified) the results were Tgondii IFNg 12.0.
`CC(C)CC(NS(=O)(=O)c1ccc2[nH]c(=O)ccc2c1)C(=O)N1CCCCC1` (stereo unspecified) gave Tgondii IFNg 61.1.
For O=S(=O)(NCc1nc2ccccc2[nH]1)c1ccc(Cl)cc1 the results were Tgondii IFNg -11.7.

Later entries:
For COc1ccc(OC)c(NC(=O)C(F)(F)F)c1 the results were Tgondii IFNg -0.4.
`CCOC(=O)c1c(SC)n(-c2ccccc2)c(=S)n(-c2ccccc2)c1=O` gave Tgondii IFNg -41.3.
For COCCN1C(=O)CCc2cc(NC(=O)c3cc(C)cc(C)c3)ccc21 the results were Tgondii IFNg -23.4.
`O=C(Nc1cccc(Cl)c1)N1CCC2(CC1)Nc1cc(F)ccc1-n1cccc12` gave Tgondii IFNg 150.1.
For Cc1nc(C(=O)N2CCc3nc[nH]c3C2)cs1 the results were Tgondii IFNg 6.4.
Screening O=C(N[C@@H]1c2ccccc2C[C@@H]1O)c1ccc(-n2cnnc2)cc1 returned Tgondii IFNg 5.0.
CCc1nc(CN2CCCCC2c2ccc(F)cc2)no1 (stereo unspecified) was read as Tgondii IFNg 10.1.
O=C1CC(c2cccnc2)c2cnn(CC3CC3)c2N1 (stereo unspecified) was read as Tgondii IFNg 6.5.
COc1ccc(CNC(=O)CN2C(=O)CCc3cc(Br)ccc32)cc1 was read as Tgondii IFNg 47.4.
CC(C)N1CCN(CC#N)C2(CCN(Cc3cncn3C)C2)C1=O (stereo unspecified) was read as Tgondii IFNg 2.5.
`Cc1cc(C)n(CC2(CNC(=O)c3occc3C)CC2)n1` gave Tgondii IFNg 16.1.
CNCCNC(=O)c1ccccc1Cc1ccc(Cl)cc1 was read as Tgondii IFNg 90.1.
O=C(Nc1cccc(Cl)c1)N1C[C@H]2[C@@H](c3ccccc31)[C@H](CO)N2Cc1cccnc1 was read as Tgondii IFNg -5.3.
`CC(=O)N(C)C1CCC2(CC1)CN(C(=O)C(C)C)Cc1ccccc1O2` (stereo unspecified) gave Tgondii IFNg -3.1.
O=S(=O)(c1ccc(Cl)cc1)N1CCC(n2nnc3cc(F)ccc32)CC1 was read as Tgondii IFNg -18.5.
For CCC(Sc1ncc(-c2ccccc2)nn1)C(=O)Nc1sc2c(c1C#N)CCCC2 (stereo unspecified) the results were Tgondii IFNg 150.0.
Screening CCn1c(=O)c(-c2nc(-c3ccc(F)c(Br)c3)no2)c(O)c2ccccc21 returned Tgondii IFNg 4.4.
Screening CN(C(=O)Cn1nnnc1N)C1Cc2ccccc2C1 returned Tgondii IFNg -4.8.
`Cc1ccc(-c2nc(C)c(CCNC(=O)C(=O)Nc3ccc(C)c(Cl)c3)s2)cc1` gave Tgondii IFNg -35.2.
For O=S(=O)(N1CCCCCC1)N1CCCCC1c1cccc(F)c1 (stereo unspecified) the results were Tgondii IFNg -10.6.
Screening CCOc1ncccc1-c1ccc(Cn2ccnc2)cn1 returned Tgondii IFNg 3.4.
CCCNC(=O)N(C)C[C@H]1Oc2ncc(C#CC3CCCCC3)cc2C(=O)N([C@H](C)CO)C[C@@H]1C was read as Tgondii IFNg 40.3.
`Cn1cc(C(=O)N2CC[C@@H]3[C@H]2CCN3CC2CCOC2)cn1` (stereo partly specified) gave Tgondii IFNg 0.9.
`c1cnc(N2CCC(Oc3cnccn3)CC2)nc1` gave Tgondii IFNg -66.5.
For COc1ccc(-c2nc(C)c(CCNC(=O)c3ccccc3Br)s2)cc1OC the results were Tgondii IFNg inactive.
c1cncc(-c2cc(Cn3ccnc3-c3nc4c(s3)CCCC4)on2)c1 was read as Tgondii IFNg 16.0.
Screening Cc1ccc(C(=O)Nc2ccc(-c3nc(Cn4cccn4)c(C)o3)cc2)s1 returned Tgondii IFNg 65.1.
C[C@H](CO)N1C[C@H](C)[C@@H](CN(C)S(=O)(=O)c2ccc(Cl)cc2)Oc2c(NC(=O)Nc3ccc(F)cc3)cccc2C1=O was read as Tgondii IFNg -51.4.
CCOC(=O)c1cccc(NC(=O)c2ccncc2)c1 was read as Tgondii IFNg 25.8.
For CCn1c(NC(=O)c2cc3nc(C)cc(C)n3n2)nc2ccccc21 the results were Tgondii IFNg -34.4.
For C[C@H]1CN([C@@H](C)CO)C(=O)c2cccc(NC(=O)Nc3ccc(F)cc3)c2O[C@@H]1CN(C)S(=O)(=O)c1ccc(Cl)cc1 the results were Tgondii IFNg -30.8.
Screening CC(C)(C)OC(=O)N1CCNC(=O)C1CC(=O)OCCCc1ccccc1 (stereo unspecified) returned Tgondii IFNg -43.1.
Screening CC(C)CN1CCS(=O)(=O)[C@H]2CCN(C(=O)Nc3ccccc3)CC[C@@H]21 returned Tgondii IFNg 4.1.
CNC(=O)CN1CCO[C@H]2CN(C(=O)C(C)C)C[C@@H]21 was read as Tgondii IFNg -11.9.
`CN1CCC(Cc2noc(CCN3CCCCCC3=O)n2)CC1` gave Tgondii IFNg 3.3.
`O=C(NC1CCC1)[C@H]1[C@H](CO)[C@H]2Cn3c(ccc(-c4ccncc4)c3=O)[C@@H]1N2Cc1cocn1` gave Tgondii IFNg -0.7.
Screening O=C(NCC[C@@H]1CC[C@@H](NS(=O)(=O)c2ccc(F)cc2)[C@@H](CO)O1)c1ccc2c(c1)OCO2 returned Tgondii IFNg -3.5.
Screening CC(C)c1cn(CC[C@H]2CC[C@@H](NS(=O)(=O)c3ccc(F)cc3)[C@H](CO)O2)nn1 returned Tgondii IFNg -39.6.
Cn1cnc(S(=O)(=O)Oc2ccccc2N2CCOCC2)c1 was read as Tgondii IFNg 134.9.
Screening CCOC(=O)N1CCC(NC(=O)C2CCCCC2)CC1 returned Tgondii IFNg 4.8.
Screening CCS(=O)(=O)N1Cc2nccn2CC(COc2cccnc2)C1 (stereo unspecified) returned Tgondii IFNg 10.3.
Screening COc1ccc(NC(=O)N2CCC(c3nc(C(=O)N4CCOCC4)c(C)o3)CC2)cc1 returned Tgondii IFNg -29.5.
Screening COc1cc2[nH]c(=O)c(CN3CCNC(=O)C3C)cc2c(OC)c1OC (stereo unspecified) returned Tgondii IFNg -1.3.
For O=C(C[C@H]1CC[C@@H]2[C@H](COC[C@@H](O)CN2Cc2ccc(F)cc2)O1)NCCc1ccccc1 the results were Tgondii IFNg 4.2.
CCC1(c2cnc[nH]2)Cc2ccccc2C1 was read as Tgondii IFNg -26.7.
`Cc1nn(C(C)C)cc1S(=O)(=O)NCCCn1ccnc1C` gave Tgondii IFNg 3.2.
For CCOCCCNC(=O)C1=C(C)C(=O)OC12CCN(Cc1ccccc1)CC2 the results were Tgondii IFNg 96.8.
CN(CCNC(=O)Cn1c(=O)oc2ccc(Cl)cc21)c1ccccc1 was read as Tgondii IFNg -2.9.
Screening O=C(c1cnc(CN2CCCC2)s1)N1C[C@@H]2[C@@H]3CC[C@@H](C3)[C@@H]2C1 returned Tgondii IFNg -10.0.
CC(C)Cc1nc(CN(C)Cc2cc3n(n2)CCCNC3)no1 was read as Tgondii IFNg 10.7.
O=C1CC(c2ccccc2)=NN1c1nc(-c2ccccc2)cc(-c2ccccc2)n1 was read as Tgondii IFNg 39.9.
For Oc1cccc(C2CCN(C3CCC4(CCNCC4)CC3)CC2)c1 the results were Tgondii IFNg 6.8.
COc1ccc(C(=O)N(c2cccc(Cl)c2)C2(C(=O)NCc3ccccc3)CCN(C(C)=O)CC2)cc1 was read as Tgondii IFNg 109.1.

Arranged by formula weight (descending): some entries from above.
`Cc1ccc(-c2nc(C)c(CCNC(=O)C(=O)Nc3ccc(C)c(Cl)c3)s2)cc1` gave Tgondii IFNg -35.2.
Screening CC(c1cccs1)N(C)C(=O)c1ccc2sc(N)nc2c1 (stereo unspecified) returned Tgondii IFNg 0.8.
O=C1CC(c2cccnc2)c2cnn(CC3CC3)c2N1 (stereo unspecified) was read as Tgondii IFNg 6.5.
